High-throughput results (PubChem)
GLA inh pH 4.5: inhibitors of human alpha-galactosidase A at pH 4.5; P06280; purified enzyme, 4-MU-alpha-Gal fluorescence, pH 4.5; activity change, negative = inhibition, % at 105 µM; 230,000 tested, under 10 active; inconclusive = small, poorly fitted or top-dose-only inhibition, or a rising curve; inactive = flat fitted curve, though single readings scatter; no compound was filed as active;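 also: 0% = full activity with enzyme and -100% = basal without enzyme; dose as in the result columns while the protocol names 77 µM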
Target sequence (P06280 whole entry, looked up): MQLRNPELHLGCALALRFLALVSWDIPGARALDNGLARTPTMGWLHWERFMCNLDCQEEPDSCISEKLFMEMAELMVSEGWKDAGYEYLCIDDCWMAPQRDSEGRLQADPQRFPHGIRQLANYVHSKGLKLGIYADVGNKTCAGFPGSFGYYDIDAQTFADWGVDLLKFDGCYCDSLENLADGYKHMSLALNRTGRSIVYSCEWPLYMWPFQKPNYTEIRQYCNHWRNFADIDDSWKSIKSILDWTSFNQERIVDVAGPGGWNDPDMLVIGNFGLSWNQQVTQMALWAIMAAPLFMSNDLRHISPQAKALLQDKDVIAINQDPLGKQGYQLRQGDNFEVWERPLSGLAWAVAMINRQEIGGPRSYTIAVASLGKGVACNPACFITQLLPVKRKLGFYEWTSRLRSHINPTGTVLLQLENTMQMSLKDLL
miR-21 FLuc: miR-21 reporter, rising signal; 340,000 tested, under 10 active; AID 2288; Potency, µM (series often up to 38.3 µM), without a hit: at the highest dose reporter change, positive = more light; HeLa miR-21 FLuc reporter, luciferase, 48 h; active = well fitted rising curve with a large enough effect; inconclusive = small, poorly fitted or top-dose-only effect; inactive = no such curve, though single readings can be large or run the other way;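 also: % of control where 0% means no effect; miR-21 action dims this reporter so a rising signal means less miR-21 action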
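HeLa cells stably expressing CMV-driven firefly luciferase with a downstream miR-21 binding sequence, endogenously expressing miR-21, were treated with titrations (up to about 40uM final) for 48 hours at 37 degree Celsius. Luciferase luminescence was read after lysis.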
Rango release inh: inhibition of RanGTP-driven Rango-importin beta dissociation; Biochemical FRET Rango-importin beta, RanGTP-induced dissociation; Potency, µM (highest dose often 46.1 µM), inactives show top-dose activity change, negative = inhibition; 340,000 tested, 0.071% active; active means falling FRET ratio curve, often poorly fitted, with flat reads before Ran was added; inconclusive means other falling curves, or compound fluorescence or quenching; inactive means flat or rising ratio curve;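 also: potency is read from the fitted curve at half-maximal effect; % of control where 0% means no effect; nearly all actives have a fitted effect of over 45% in size; -100% = wells without RanGTP and RCC1; the record marks most hits as doubtful in a second field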
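Compounds sat 5 min at room temperature with 0.1 uM Rango biosensor plus 0.25 uM importin beta, then FRET pre-read. RanGTP-RCC1 (0.6 uM Ran, 2mM GTP, 0.2 uM RCC1) added for 45 min, and the CFP/YFP post-read measured blocked complex dissociation.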
Rango complex inh: Rango-importin beta binding inhibition | Q14974 | Rango CFP/YFP FRET sensor + importin beta, 45 min | Potency, µM (titrated, usually from 92.2 µM), without a hit: top-dose inhibition of complex formation | 340,000 tested, 0.031% active | AID 540263; active = rising FRET ratio curve, often small or poorly fitted; inconclusive = mostly compound fluorescence or quenching in the first reads; inactive = flat curves in all reads;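 also: potency is read from the fitted curve at half-maximal effect; 0% = DMSO wells and 100% = buffer wells lacking importin beta; nearly all actives have a fitted effect of over 15% in size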
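FRET biosensor (snurportin 1 IBB flanked by EYFP and cerulean), 50 nM, with compound 5 min, then 0.125 microM importin beta in PBS, 1 mM DTT, 0.02% Tween-20, 0.1% BSA. CFP/YFP ratio read after 45 min at room temperature; pre-read flags interference.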
Starred values were filed as active, the others as inactive; ? = inconclusive; / = not tested or not shown. Some of the compounds tested, so the mix of outcomes need not match the whole.

Order of values – GLA inh pH 4.5 | miR-21 FLuc | Rango release inh | Rango complex inh
> COc1ccc(-c2nc(CS(=O)CC(=O)N3CCN(C)CC3)c(C)o2)cc1 (configuration not stated)
    / | -0.4% | -4.7% | -1.1%
> COC(=O)CCCC(=O)N1CCOCCN(C(=O)CCCC(=O)OC)CCOCC1
    -0.6 | -0.4% | -20.8% | -2.9%
> COc1ccc(-c2cc(C(=O)NCc3ccco3)no2)cc1OC
    -1.5 | -25.8% | 10.0% | 1.2%
> COc1ccccc1NC(=O)CC1C(=O)NCCN1C(=O)Nc1ccccc1 (configuration not stated)
    12.8 | -1.7% | 17.1% | -1.3%
> Cc1ccc(S(=O)(=O)NC(CC(=O)O)c2cccs2)cc1 (configuration not stated)
    / | 0.4% | -8.9% | -1.8%
> COc1cccc(C(N)CC(=O)O)c1 (configuration not stated)
    -1.5 | -1.0% | / | /
> CN(C(=O)c1cccc(S(=O)(=O)N2CCOCC2)c1)c1c(N)n(Cc2ccccc2)c(=O)[nH]c1=O
    / | / | 13.2% | -2.3%
> CCOC(=O)C1=C(C)OC(N)=C(C#N)C1c1cccc(C)c1 (configuration not stated)
    4.0 | 0.6% | -13.3% | ?
> CC1=C(C#N)C(=O)NC(C)(C)C1
    2.7 | -5.0% | -14.7% | 0.3%
> COc1ccc(C(=O)C2CCCN(Cc3ccc(Sc4nncn4C)o3)C2)cc1F (configuration not stated)
    -6.3 | -6.3% | -6.7% | -2.5%
> S=c1[nH]c(-c2ccc(Cl)cc2)cs1
    -7.9 | -32.2% | 12.3% | 1.2%
> CCOc1cc2c(cc1OCC)C(c1ccccc1OC)OC(=O)C2 (configuration not stated)
    -9.2 | -0.3% | -7.9% | 3.9%
> CCc1cc(=O)oc2cc(C)cc(OCC(C)=O)c12
    3.7 | 0.7% | -6.9% | -3.7%
> Oc1ccc(Cl)cc1C(C#Cc1ccccc1)N1CCOCC1 (configuration not stated)
    -3.9 | -2.4% | -13.4% | -1.6%
> Cn1c(=O)n(Cc2ccc(Br)cc2)c2ccccc21
    3.6 | -0.1% | -21.5% | 3.0%
> COc1ccc(OCC(=O)Nc2ccc3oc(=O)ccc3c2)cc1
    / | -2.3% | 11.4% | -3.7%
> Cc1ccc(O)c(C(=O)c2cnn(C(=O)Cc3csc(C)n3)c2)c1
    1.8 | 9.4% | -0.5% | -2.4%
> O=C(Nc1cccc(S(=O)(=O)NC2=NCCC2)c1)c1cc(-c2ccco2)nc2ccccc12
    -0.5 | -1.7% | -13.4% | -3.8%
> COc1cc(OC)c(C(=O)N/N=C/c2ccoc2)cc1OC
    / | -9.3% | 4.7% | -1.6%
> Cc1nnc2c3ccccc3c(-c3cccc4ccccc34)nn12
    2.6 | -2.2% | 0.9% | -2.8%
> COc1cc(OC)c(OC)cc1/C=C1/C(=O)N=C(N)N1C
    -13.4 | -4.2% | -5.1% | 0.5%
> Cc1ccc(C)c(NC(=O)CSc2nnc(-c3ccncc3)n2N)c1
    5.3 | 5.8% | -10.4% | ?
> CN(CC(=O)NCc1ccc2c(c1)OCO2)CC(=O)Nc1ccc(F)c(F)c1F
    / | / | 8.2% | 0.1%
> C/C(=C\c1ccccc1)CN1CCN(c2cccc(Cl)c2)CC1
    -2.6 | -7.6% | -4.1% | -0.1%
> C=CCN(C(=O)c1csnn1)C(C(=O)NC1CCCCC1)c1ccc(Cl)cc1 (configuration not stated)
    / | 0.0% | -0.4% | 0.4%
> O=C(O)c1ccc(CSc2nnc(COc3ccc(Cl)cc3Cl)o2)cc1
    -3.1 | -59.2% | 4.6% | -2.8%
> Nc1c(S(=O)(=O)c2cc(Cl)ccc2Cl)c2nc3ccccc3nc2n1CCN1CCOCC1
    4.9 | 13.5% | -5.8% | ?
> CCc1ccc(S(=O)(=O)Nc2ccc(O)c3c(=O)cc(-c4ccccc4Cl)oc23)cc1
    -7.3 | 5.3% | -6.3% | -0.8%
> CC(C)NC(=O)Cn1cnc2c(cnn2-c2ccc(F)cc2)c1=O
    / | -0.1% | -17.7% | -2.2%
> O=c1oc2ccccc2cc1-c1csc(Nc2ccc(O)cc2)n1
    1.1 | -21.1% | 1.6% | 3.1%
> CCOC(=O)c1sc(=S)n(-c2ccc(Cl)cc2)c1C
    -24.3 | -2.6% | -13.9% | 0.7%
> COc1ccc(S(=O)(=O)NCc2ccccn2)cc1NC(=O)c1ccc(C)cc1
    / | / | -1.7% | -1.2%
> N/C(=N\OC(=O)c1ccc2c(c1)OCO2)c1cccc([N+](=O)[O-])c1
    9.3 | -52.3% | -18.5% | -2.3%
> Nn1c(SCC(=O)N2CCCc3ccccc32)nnc1-c1ccccc1
    -8.3 | -4.0% | -9.0% | ?
> C=CCn1c(COc2ccc(OC)cc2)nnc1SC(C)C(=O)NC1CC1 (configuration not stated)
    / | / | -23.2% | 0.4%
> CN(C)C(CNC(=O)c1cccc(S(=O)(=O)N2CC3(C)CC2CC(C)(C)C3)c1)c1ccco1 (configuration not stated)
    0.0 | 7.3% | -3.2% | -3.0%
> Cc1nc(-c2cc(-c3nc(-c4cc(C(F)(F)F)cc(C(F)(F)F)c4)no3)no2)cs1
    -3.7 | 0.5% | -3.3% | 3.5%
> C[C@H]1CN=C(N(C)C)N1CCc1cccc(F)c1
    / | / | 2.4% | 0.7%
> O=C(NCc1cccnc1)NC(=O)c1ccc(Cl)cc1
    / | -2.5% | 3.6% | 2.1%
> O=C1C(=O)N(CCCN2CCOCC2)C(c2ccc(F)cc2)/C1=C(/O)c1ccccc1 (configuration not stated)
    / | -2.1% | 1.2% | 2.5%
> O=C(NC(=O)c1ccc(Cl)cc1)Nc1ccc(-c2cnco2)cc1
    -0.7 | -2.6% | / | /
> CCOc1ccccc1NC(=S)NCc1ccccc1
    / | 6.2% | -9.1% | -4.2%
> COc1ccc(CCNC(=O)COC(=O)c2cc(=O)[nH]c3ccccc23)cc1
    / | / | 11.9% | -3.5%
> O=C(NCCCN1CCCCCC1)c1ccc2c(c1)NC(=O)C(N1CCOCC1)S2 (configuration not stated)
    4.7 | -0.3% | -1.6% | -0.5%
> NNC(=O)c1cncn1-c1ccc(F)cc1
    7.6 | 2.2% | -0.3% | 1.9%
> CC1=C(c2ccccc2)[N+](=O)C2(CCCCC2)N1[O-]
    -12.2 | 0.3% | 12.2% | -0.3%
> O=C(COC(=O)c1cccc(S(=O)(=O)N2CCOCC2)c1)Nc1ncc(C(F)(F)F)cc1Cl
    3.6 | 10.6% | 9.5% | 2.7%
> O=C(CCc1ccc(S(=O)(=O)N2CCOCC2)cc1)Nc1c(F)cccc1F
    / | / | -0.9% | -1.8%
> C=CCn1c(SCC(=O)NCCO)nc2sc(C)c(C)c2c1=O
    1.1 | -1.5% | 34.7% | 8.6%
> C=CCOc1ccccc1CN1CCC(Oc2ccc(C(=O)N3CCCC3)cc2)CC1
    / | 4.7% | -4.6% | ?

More compounds follow.
Order of values – GLA inh pH 4.5 | miR-21 FLuc | Rango release inh | Rango complex inh
> O=C(c1ccc2c(c1)OCO2)n1nnc2ccccc21
    8.1 | 0.0% | / | /
> COc1cccc(-n2nnc3c(=O)n(CC(=O)Nc4cc(C)on4)cnc32)c1
    -0.5 | -2.0% | -1.5% | 3.3%
> O=C(NCCCCCNC(=O)c1cccnc1)c1cccnc1
    4.0 | -7.9% | 9.8% | 0.9%
> Cc1oc(-c2ccccc2)nc1C(=O)OCC(=O)NCc1ccccc1
    / | / | -11.1% | -0.7%
> COCCN(CCOC)C(=O)c1cc2sc3ccccc3c2s1
    -0.1 | -33.6% | -1.3% | 2.3%
> COc1cccc(-n2nnc3c(=O)n(CC(=O)N4CCCc5ccccc54)cnc32)c1
    -4.8 | 1.4% | 0.0% | 6.3%
> Cn1c(=O)c2c(nc(CN3CCc4ccccc4C3)n2Cc2cccc(Cl)c2)n(C)c1=O
    1.5 | 26.5% | ? | ?
> COc1cccc(NC(=S)NC(=O)Cc2ccc(Cl)cc2)c1
    / | -5.0% | 15.5% | -1.9%
> CCOC(=O)c1c(CCl)nc2ccccc2c1C
    7.3 | 3.0% | 7.6% | -1.4%
> O=c1oc(-c2cccs2)nc2sc3c(c12)CCCC3
    -1.6 | -3.1% | ? | ?
> CC(C)CCNS(=O)(=O)c1ccc(-c2ccc(S(=O)(=O)NCCC(C)C)cc2)cc1
    3.8 | -1.6% | 0.3% | -0.8%
> O=C(Nc1cccnc1)c1ccccc1F
    4.1 | -8.6% | 2.7% | -2.1%
> CC(C)CN(C(=O)CSc1nc2ccccc2o1)c1c(N)n(Cc2ccccc2)c(=O)[nH]c1=O
    / | / | -13.0% | -1.2%
> c1ccc(-c2nnc(SCc3cn4ccsc4n3)o2)cc1
    -3.2 | -48.3% | 5.0% | 0.8%
> COc1ccc2oc(C(=O)NC3(C)CCS(=O)(=O)C3)c(C)c2c1 (configuration not stated)
    / | / | -3.4% | 2.1%
> COc1ccc2[nH]cc(CCNC(=O)c3ccc4ccccc4n3)c2c1
    / | -4.7% | -13.4% | -0.5%
> Cc1ccc(/C=N/NC(=O)CCCOc2ccc(Cl)cc2Cl)cc1[N+](=O)[O-]
    7.4 | -2.1% | 2.6% | -2.7%
> CC(C)(O)c1[nH]c2cc(F)ccc2c1C(C)(C)O
    / | 5.3% | -19.4% | ?
> COc1ccc(NC(=S)NNC(=O)OC(C)(C)C)cc1OC
    0.9 | 1.5% | -0.4% | -8.6%
> CC(C)n1cc(CN2CCCC(C(=O)Nc3cccc(-c4cc5ccccc5[nH]4)c3)C2)cn1 (configuration not stated)
    / | ? | -1.2% | 5.7%
> CCC(CO)Oc1cc(NCc2cc(C)cc(C)c2)c2ncn(C(C)C)c2c1 (configuration not stated)
    / | / | -12.5% | -1.5%
> Cc1ccc(N2CC(C(=O)OCc3ccccc3F)CC2=O)cc1 (configuration not stated)
    -1.8 | -7.0% | 5.0% | -0.3%
> COc1cc(C(=O)NC(=S)Nc2ccc(Cl)cn2)cc(OC)c1OC
    / | -0.4% | -2.0% | 0.6%
> C/C(=N\N1CCN(c2ccc(Cl)cc2)CC1)c1ccco1
    -18.4 | 1.6% | 4.7% | -0.2%
> O=C(COC(=O)C1CC2C=CC1C2)Nc1ccccc1 (configuration not stated)
    2.1 | -7.1% | -16.5% | -2.5%
> COc1ccc(OC)c(-n2c(=S)[nH]c3cc(C(=O)NCCCN4CCCC4=O)ccc3c2=O)c1
    -22.1 | -7.8% | / | /
> CCN(CC)C(=O)c1cn(CC)c(=O)c2cc(OC)c(OC)cc12
    -6.1 | -8.8% | 8.2% | 0.4%
> O=C(NOCc1ccccc1)c1cccc([N+](=O)[O-])c1
    / | / | -1.6% | -1.4%
> O=C(NCCc1ccccc1)c1nc(-c2cccs2)no1
    -0.6 | -61.3% | 2.4% | 3.0%
> COc1ccc(-c2cc(C(F)(F)F)nc(N3CCCCCC3)n2)cc1
    -8.0 | -2.9% | 24.4% | 0.0%
> C=C1CC[C@@]23CC[C@]4(C)[C@@](OC2=O)([C@@H]3C1)[C@H]1O[C@H]1C1[C@@]2(C)CC[C@H](O)C(C)(C)C2CC[C@]14C (some centres not stated)
    / | / | 9.0% | 0.1%
> CCSc1c(C(=O)NC)ccc2c1C(=O)c1ccccc1C2=O
    5.7 | -16.1% | -4.6% | 2.8%
> Cc1ccc(C2(C)NC(=O)N(CCOc3ccccc3)C2=O)cc1 (configuration not stated)
    -5.6 | -8.2% | 23.4% | -1.0%
> CC(C)(C)c1ccc(CN(Cc2ccccc2)C(c2ccccn2)c2nnnn2C(C)(C)C)cc1 (configuration not stated)
    ? | 1.1% | 2.8% | ?
> O=C(CS(=O)(=O)c1ccccc1)Nc1nc(-c2ccc(F)cc2)cs1
    5.0 | 1.9% | -6.2% | -0.3%
> S=C1NCN(Cc2ccco2)CN1
    -4.1 | -0.8% | 5.0% | -3.9%
> CC(=O)c1cc(CN2CCN(C3CCCCC3)C(CCO)C2)cs1 (configuration not stated)
    -6.8 | -1.7% | 1.6% | -0.1%
